TSHR agonist – agonists of human thyroid stimulating hormone receptor. HEK293-CNG-TSHR cells (CNG channel as cAMP sensor), membrane potential dye, cAMP. Potency, µM (top dose mostly 57.1 µM), for the others: at the top dose activation, most hits filed as activators. 0.48% of 73,000 active; active = well fitted activation curve of enough size with the parental cells flat; inconclusive = any curve in the parental cells; inactive = parental cells flat and receptor cells flat or falling; also: potency is read from the fitted curve at half-maximal effect; % of control where 0% means no effect; weak receptor curves with flat parental cells got no call and are not listed
Target sequence (P16473 whole entry, looked up): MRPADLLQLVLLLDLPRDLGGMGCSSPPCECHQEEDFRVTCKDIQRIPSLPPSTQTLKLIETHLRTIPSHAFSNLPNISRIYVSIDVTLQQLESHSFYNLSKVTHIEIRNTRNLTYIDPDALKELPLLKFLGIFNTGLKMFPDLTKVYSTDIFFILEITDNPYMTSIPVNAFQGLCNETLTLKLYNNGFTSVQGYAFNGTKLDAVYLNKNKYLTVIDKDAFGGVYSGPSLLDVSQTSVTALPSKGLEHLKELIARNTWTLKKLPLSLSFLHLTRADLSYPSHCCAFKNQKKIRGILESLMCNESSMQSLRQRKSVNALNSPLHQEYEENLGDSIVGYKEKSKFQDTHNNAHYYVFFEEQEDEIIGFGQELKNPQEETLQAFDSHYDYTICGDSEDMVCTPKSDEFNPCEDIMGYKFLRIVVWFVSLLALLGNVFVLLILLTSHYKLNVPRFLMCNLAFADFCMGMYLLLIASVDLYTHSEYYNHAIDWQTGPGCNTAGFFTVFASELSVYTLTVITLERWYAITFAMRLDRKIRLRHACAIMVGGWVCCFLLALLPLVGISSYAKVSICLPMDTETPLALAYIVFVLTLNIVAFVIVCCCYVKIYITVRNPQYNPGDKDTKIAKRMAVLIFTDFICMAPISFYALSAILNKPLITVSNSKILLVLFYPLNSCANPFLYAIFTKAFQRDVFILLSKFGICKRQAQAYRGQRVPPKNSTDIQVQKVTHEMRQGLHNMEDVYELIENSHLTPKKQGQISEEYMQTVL
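HEK 293 cells stably expressing TSHR and a modified CNG channel, with CNG-only parental cells as counterscreen, were preloaded 60 min at room temperature with membrane potential dye containing 100 uM RO 20-1724. Compound exposure was 30 min, and depolarization was read as fluorescence at 590 nm.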
AID923 – qHTS Assay for Allosteric/Competitive Inhibitors of Caspase-1: Spectroscopic Profiling in AFC Spectral Region. Potency, µM (top dose mostly 57.5 µM), inactives show at the top dose fluorescence increase, most hits filed as activators. compound fluorescence, AFC spectral region (405/520 nm); almost no hit is shown here. 1.1% of 75,000 active. AID 923, 2007; active = well fitted activation curve with a large enough effect; inconclusive = small, poorly fitted or top-dose-only effect;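 also: potency is read from the fitted curve at half-maximal effect; 0% is about no effect; scaled to a free AFC standard on each plate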
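Baseline compound fluorescence (AFC region, 405 nm ex/520 nm em) taken from the intercept of kinetic reads with 50 nM caspase-1 and 5 uM Ac-WEHD-AFC; normalized to an on-plate AFC standard curve; compounds titrated up to 57 uM.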
A647 fluor – A647 region autofluorescence; Compound fluorescence, A647 channel (570/671 nm), Tris buffer; max dye-equivalent concentration, M; 59,000 tested, under 10 active; AID 592; active means above 1 µM dye equivalent; inconclusive means 0.1 to 1 µM; inactive means 0.1 µM or less;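 also: values scaled relative to a standard on each plate; highest value over a series up to 38 µM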
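Buffer was dispensed, compounds and Alexa 647 standards were pin-transferred, and plates sat 15 min at room temperature. Intensity at 570/671 nm was then converted to dye-equivalent concentration using the plate's A647 standard curve.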
Resorufin fluor – resorufin region autofluorescence. max dye-equivalent concentration, M. 0.04% of 59,000 active. AID 588. Compound fluorescence, resorufin region 547/598 nm, buffer; active compounds read high; active = above 10 nM dye equivalent; inconclusive = 1 to 10 nM; inactive = 1 nM or less; a few of its hits are not listed in these tables; also: highest value over a series up to 38 µM
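Intrinsic fluorescence profiled in the resorufin window (ex 547 nm, em 598 nm) after 15 min at room temperature in pH 8.0 Tris buffer (100 mM); responses normalized against a six-point resorufin standard series as dye-equivalent concentration.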
A488 fluor – compound autofluorescence in A488 spectral region; max dye equivalency, M; compound autofluorescence, A488 spectral region, dye equivalency; active compounds read high; AID 591; 0.1% of 59,000 active; active = above 10 nM dye equivalent; inconclusive = 1 to 10 nM; inactive = 1 nM or less; about half of its hits are not listed in these tables;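 also: highest value over a series up to 38 µM; compound alone in buffer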
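Autofluorescence read at ex 480/em 540 nm after 15 min RT in 100 mM Tris pH 8.0; compound signal normalized to A488 standard series on each plate, reported as dye-equivalent concentration at each test concentration.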
* marks the source's active call; other numbers are inactive results; i = inactive; ? = inconclusive; · = no result given; [ ] = remark or other dose. Some of the compounds tested, so the mix of outcomes need not match the whole.

SMILES | TSHR agonist | AID923 | A647 fluor | Resorufin fluor | A488 fluor
CCCCCCOc1ccc(C(CC(=O)O)C(N)=O)cc1 (centres undefined) | -0.4% | 2.0% | 1.93e-08 | i | i
CC(O)(C#CCN1CCOCC1)c1ccccc1 (centres undefined) | · | · | 5.77e-08 | i | i
CN(Cc1ccccc1)Cc1nc2c(c(=O)n(C)c(=O)n2C)n1Cc1ccc(F)cc1 | ? | -2.0% | 3.58e-08 | i | i
COc1cccc(C(=O)N2CCN(c3ncccn3)CC2)c1 | -5.1% | -2.3% | 5.8e-09 | i | i
CC(=O)c1ccc(O)c(CN(C2CCCCC2)C2CCCCC2)c1O | -0.2%[11.4 µM] | 2.4%[11.5 µM] | 1e-09 | i | i
Cc1ccc(S(=O)(=O)N[C@@H](C)C(=O)N2CCC(C(=O)N3CCC[C@H]3C(=O)O)CC2)cc1 | -4.6% | 0.5% | 8e-09 | i | i
O=C(Nc1ccccc1)N(CCCN1CCOCC1)Cc1cc2cc3c(cc2[nH]c1=O)OCCO3 | 8.5% | 0.9% | 3.09e-08 | i | i
O=C1CN(Cc2ccccc2)C(=NCc2ccco2)S1 | -6.8% | -1.4% | 2.4e-09 | i | i
Cc1cc2nc(NC3=NCN(CCCN4CCOCC4)CN3)nc(C)c2cc1C | -2.0% | 0.6% | 4.2e-08 | i | i
CC(=O)N1[C@H](C)C=C[C@]1(Cc1ccccc1)C(=O)NCc1ccccn1 | 9.2% | -0.1% | · | · | ·
COc1ccc(COn2c(=O)c(C)[n+]([O-])c3ccccc32)cc1OC | 8.1% | 1.5% | 5.3e-09 | i | i
COc1cccc(CNc2ccc3c(c2)ncn3C(C)C)c1OC | -0.8% | -3.9% | · | · | ·
COc1cccc(NS(=O)(=O)c2ccc(NC(C)=O)cc2)c1 | 11.4% | -0.6% | 7.5e-09 | i | i
C=CCSc1nc(O)c(CC)c(=O)n1C(C)CC (centres undefined) | 12.8%[11.4 µM] | -1.5% | · | · | ·
O=C(CS(=O)(=O)Cc1ccccc1)N1CCN(Cc2ccc3c(c2)OCO3)CC1 | 4.2% | 1.1% | 1.96e-08 | i | i
NS(=O)(=O)c1cc(Cl)c(Cl)c(S(N)(=O)=O)c1 | 8.0%[25.6 µM] | -1.4%[25.7 µM] | 2.58e-08 | i | i
CSc1oc(-c2ccccc2)nc1S(=O)(=O)c1ccc(F)cc1 | ? | 3.2% | 1.93e-08 | i | i
Cc1cc(C)n(-c2nc(NCCCO)c3c4c(sc3n2)CCCC4)n1 | 17.1% | -1.6% | 1.61e-08 | i | i
Cc1cc(Nc2ccc(F)cc2F)n2ncnc2n1 | 3.4% | -4.1% | · | · | ·
Cc1oc(-c2ccccc2Cl)nc1CSCC(=O)NC1CC1 | 5.4%[11.4 µM] | -1.5% | 1.83e-08 | i | i
c1cc(NC2CC2)nc(-c2ccoc2)n1 | 2.1% | 6.8% | 3.6e-08 | i | i
CCCn1c(NC(=O)C2COc3ccccc3O2)nc2ccccc21 (centres undefined) | · | -1.4% | 1e-09 | i | i
O=C(CSc1nc2scc(-c3ccco3)c2c(=O)n1-c1ccccc1)NCC1CCCO1 (centres undefined) | 31.6µM* | 0.4% | 1.9e-08 | i | i
CC1(C)Cc2c(C#N)c(SCCC#N)nc(N3CCOCC3)c2CS1 | · | · | 1e-09 | i | i
O=C(NCc1ccc2c(c1)OCO2)C1CCN(S(=O)(=O)c2cccs2)CC1 | 5.9%[11.4 µM] | -0.9% | 3.2e-09 | i | i
CCn1c(=O)n(CC(=O)N(C)Cc2ccccc2)c(=O)c2ccccc21 | -3.4%[11.4 µM] | 1.5% | 1e-09 | i | i
Cc1oc(-c2ccccc2)nc1C(=O)Nc1nccs1 | ? | 0.9% | 1.5e-09 | i | i
N#CC1=C(N)OC2=C(C(=O)CCC2)C1Cc1ccccc1 (centres undefined) | 2.1% | -2.3% | 1.42e-08 | i | i
COC(=O)CN(c1ccc(OC)cc1)S(=O)(=O)c1ccc(OC)c(OC)c1 | -7.1% | -2.1% | · | · | ·
COc1cc(OC)c(NC(=O)CCc2nc(-c3ccc(C)cc3)no2)cc1Cl | -8.5% | -0.7% | 6.1e-09 | i | i

Overlap with the part before: 3 compounds, then new ones.
SMILES | TSHR agonist | AID923 | A647 fluor | Resorufin fluor | A488 fluor
N#CC1=C(N)OC2=C(C(=O)CCC2)C1Cc1ccccc1 (centres undefined) | 2.1% | -2.3% | 1.42e-08 | i | i
COC(=O)CN(c1ccc(OC)cc1)S(=O)(=O)c1ccc(OC)c(OC)c1 | -7.1% | -2.1% | · | · | ·
COc1cc(OC)c(NC(=O)CCc2nc(-c3ccc(C)cc3)no2)cc1Cl | -8.5% | -0.7% | 6.1e-09 | i | i
CN(c1ccc(C(=O)N2CCN(c3ccc(F)cc3)CC2)cc1)S(C)(=O)=O | -2.3% | -2.2% | 7.7e-09 | i | i
COc1cccc(-c2csc3nc[nH]c(=O)c23)c1 | 11.8% | -0.3% | 1.37e-08 | i | i
C=C(Br)Cn1c(CCC)nc2ccccc21 | ? | -1.3% | · | · | ·
Cc1cc(NC(=O)CCC(=O)N(CC(=O)NC2CCCC2)Cc2ccc(F)cc2)no1 | 12.1% | 1.1% | 1e-09 | i | i
C=CCn1c(-c2ccccc2)nc2nc3ccccc3nc21 | 3.3% | 1.3% | 2.3e-09 | i | i
O=C(CSc1nc(-c2ccc(F)cc2)cs1)NC(=O)NCc1ccco1 | 19.2% | 1.0% | 1.94e-08 | i | i
Cc1ccccc1S(=O)(=O)NC1OC(=O)C(Cl)=C1Cl (centres undefined) | 2.3% | -0.4% | 3.24e-08 | i | i
COc1ccccc1NC(=O)C1=C(C)Nc2nnnn2C1c1cc(Br)ccc1OC (centres undefined) | -12.9% | -1.6% | 5.4e-09 | i | i
CCC(NC(=O)Nn1cnnc1)(C(F)(F)F)C(F)(F)F | · | · | 2.3e-09 | i | i
COC(=O)c1cc(COC(=O)c2cccnc2SC)oc1C | ? | 0.2% | 8.2e-09 | i | i
Cc1csc(NC(=O)CCn2c(=O)oc3ccccc32)n1 | -0.4% | -0.1% | 1.42e-08 | i | i
COc1ccc(CCNC(=O)C2CCN(S(=O)(=O)c3c(C)noc3C)CC2)cc1OC | 2.8% | -1.3% | 1e-09 | i | i
Nc1ncnc2nc(SCCc3ccccc3)[nH]c12 | 0.3% | -0.9% | 1e-09 | i | i
CC1CCC2C(=O)N3C(CCC(C)[C@H]3c3ccccc3Br)C(=O)N2C1c1ccccc1Br (some centres undefined) | 9.1%[11.4 µM] | -1.5%[11.5 µM] | · | · | ·
COc1cccc(NC(=O)c2oc3ccccc3c2NC(C)=O)c1 | ? | -2.4% | 1.31e-08 | i | i
COC(=O)CSc1ccc2nnc(-c3ccc(OC)c(OC)c3)n2n1 | 1.9% | -1.5% | · | · | ·
O=C1C(=O)N(CCCN2CCOCC2)C(c2ccccn2)/C1=C(\O)c1ccc2c(c1)OCCO2 (centres undefined) | · | 0.3% | 2.9e-08 | i | i
Cc1occc1C(=O)N1CCN(Cc2ccccc2)CC1 | 1.3% | 3.7% | · | · | ·
O=S(=O)(c1ccc2c(c1)OCO2)N1CCN(c2nnnn2-c2ccccc2)CC1 | 3.9% | -0.1% | 1.95e-08 | i | i
COc1ccc2[nH]cc(CCNc3ncnc4ccc(-c5cccnc5)cc34)c2c1 | 8.1% | 0.9% | 1e-09 | i | i
O=C(c1ccco1)c1n[nH]nc1-c1ccccc1 | 24.0% | 3.4% | · | · | ·
CC(C)=CCSc1nnc([C@@H](NC(=O)OC(C)(C)C)C(C)C)o1 | 29.8% | 4.4% | 1e-09 | i | i
Cc1ccc(C)c(NC(=O)C2CC=CCC2C(=O)O)c1 (centres undefined) | 3.8% | 1.6% | · | · | ·
C=CCN(C1CCCCC1)S(=O)(=O)c1ccc2c(c1)oc(=O)n2C | 23.7% | 2.7% | · | · | ·
CCN(CC)c1c(-c2ccccc2)c2cc(C)ccc2[nH]c1=O | 2.1% | 4.3% | · | · | ·
O=C(Nc1ccccc1)c1ccc(S(=O)(=O)N2CCCC2)cc1 | 2.7%[11.4 µM] | 0.9% | 1.32e-08 | i | i
O=C(c1ccccc1-c1nc(-c2ccccc2)no1)N1CCCC1 | 21.4% | -0.2% | 1e-09 | i | i
O=C(COc1ccc(Cl)cc1Br)N1CCN(c2ccccc2)CC1 | 9.5% | 1.0% | · | · | ·
Cc1cccc(N(C)c2cc(C)nc3ncnn23)c1 | ? | -3.0% | · | · | ·
O=C(CCC(=O)N1CCN(c2ccccn2)CC1)Nc1nnc(C2CCCCC2)s1 | · | 0.1% | 8.1e-09 | i | i
N#Cc1c(N)oc(-c2ccco2)c1-c1ccco1 | -14.8% | 8.0% | 1.73e-08 | i | i
COc1ccc(Nc2nnc(C)c3ccccc23)cc1C(N)=O | · | · | 3e-09 | i | i
NC(=O)C1(S(=O)(=O)c2ccccc2)CCCCC1 | -4.3% | 0.8% | · | · | ·
CC(C)CSc1nc(N2CCOCC2)c2c(c1C#N)CC(C)(C)SC2 | · | · | 5.4e-08 | i | i
CC1CCC(NC(=O)c2cc3c(=O)n(C)c4ccccc4c3n2C)CC1 (centres undefined) | 5.5% | -1.2% | · | · | ·
COCCCNC(=O)CC(NS(=O)(=O)c1ccc(C)cc1)c1ccco1 (centres undefined) | 4.4%[11.4 µM] | 1.3% | 1e-09 | i | i
COc1ccccc1NC(=O)NCc1ccc2c(c1)OCO2 | -3.8% | 0.9% | 6.5e-09 | i | i
N#Cc1c(C#N)c(-c2ccccc2)n(-c2ccc(C(=O)O)cc2)c1N | ? | 5.1% | 1.4e-08 | i | i
COC(=O)c1c(NC(=O)c2ccc(C)o2)sc2c1CCCCC2 | · | 8.5% | 1e-09 | i | i
COC(=O)[C@@]1(Cc2ccc(F)cc2)[C@H]2c3cc(C(=O)N4CCCC4)n(CCN4CNCC4=O)c3C[C@H]2CN1C(=O)c1ccccc1 | 0.8% | -1.1% | · | · | ·
COc1cccc(CNc2ccc(S(N)(=O)=O)cc2)c1OC | 1.6% | -0.1% | 7.5e-09 | i | i
O=C(c1ccccc1)c1ccc(N2CCOCC2)c(NC(=O)c2ccco2)c1 | ? | -4.0% | 1e-09 | i | i
CCNc1nc(SC(C)C(=O)Nc2ccccc2)nc(N2CCOCC2)n1 (centres undefined) | · | 2.3% | 3e-09 | i | i
COc1ccc(Nc2ncnc3nc[nH]c23)cc1OC | -6.2% | -2.2% | · | · | ·
Fc1ccc(Nc2ncncc2-c2ccccc2C(F)(F)F)cc1 | 23.2% | 4.0% | 1e-09 | i | i
COc1ccc(NC(=O)c2cc(-c3ccc(C)o3)nc3ccccc23)cc1OC | ? | 6.1% | 1.24e-08 | i | i
CCCNC(=O)NC(=O)CSc1nnc(-c2ccncc2)n1CC | 2.0% | 3.1% | 2.4e-09 | i | i
O=C(Nc1ccc(S(=O)(=O)N2CCOCC2)cc1)C1COc2ccccc2O1 (centres undefined) | 17.0% | -1.2% | · | · | ·
CCCCOC(=O)C1[C@H]2C(=O)N(c3ccccc3CC)C[C@]23C=C[C@H]1O3 (some centres undefined) | 0.2% | -0.8% | 1e-09 | i | i
O=C(NC(NCCCN1CCOCC1)(C(F)(F)F)C(F)(F)F)C1CCCCC1 | 6.4% | 1.4% | 3.82e-08 | i | i
CC(C)[C@@H]1O[C@H](/C=C\c2ccccc2)OCC1(C)C | 5.0%[11.4 µM] | -3.4%[11.5 µM] | 3.35e-08 | i | i
COC(=O)c1ccc(N2C(=O)CC(N3CCOCC3)C2=O)cc1 (centres undefined) | 2.5% | -0.7% | · | · | ·
Cc1ccccc1NC(=O)Cn1cccc1 | 2.0%[11.4 µM] | -1.1% | 2.47e-08 | i | i

Bioassay records deposited in PubChem BioAssay by National Center for Advancing Translational Sciences (NCATS).
